Screening data (PubChem)
KCNQ2 pot: potentiators of rat KCNQ2 potassium channel; 0.54% of 310,000 active; Potassium voltage-gated channel subfamily KQT member 2 (Rattus norvegicus), O88943; B-score at 10 µM; CHO-K1 KCNQ2, FluxOR thallium flux fluorescence; stronger effect = higher value;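 active = fluorescence ratio B-score at least 3 SD of library B-scores, with initial fluorescence B-score within 3 SD, cut at about 5.3 in these data; same plate scores as AID 2156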;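 also: B-score of peak minus minimum over baseline fluorescence ratio after K+ and Tl+ stimulus; positive B-score means potentiation of KCNQ2 with more thallium influx and brighter signal; only the inactives scoring about 0 or higher are listed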
Target sequence (O88943 whole entry, looked up): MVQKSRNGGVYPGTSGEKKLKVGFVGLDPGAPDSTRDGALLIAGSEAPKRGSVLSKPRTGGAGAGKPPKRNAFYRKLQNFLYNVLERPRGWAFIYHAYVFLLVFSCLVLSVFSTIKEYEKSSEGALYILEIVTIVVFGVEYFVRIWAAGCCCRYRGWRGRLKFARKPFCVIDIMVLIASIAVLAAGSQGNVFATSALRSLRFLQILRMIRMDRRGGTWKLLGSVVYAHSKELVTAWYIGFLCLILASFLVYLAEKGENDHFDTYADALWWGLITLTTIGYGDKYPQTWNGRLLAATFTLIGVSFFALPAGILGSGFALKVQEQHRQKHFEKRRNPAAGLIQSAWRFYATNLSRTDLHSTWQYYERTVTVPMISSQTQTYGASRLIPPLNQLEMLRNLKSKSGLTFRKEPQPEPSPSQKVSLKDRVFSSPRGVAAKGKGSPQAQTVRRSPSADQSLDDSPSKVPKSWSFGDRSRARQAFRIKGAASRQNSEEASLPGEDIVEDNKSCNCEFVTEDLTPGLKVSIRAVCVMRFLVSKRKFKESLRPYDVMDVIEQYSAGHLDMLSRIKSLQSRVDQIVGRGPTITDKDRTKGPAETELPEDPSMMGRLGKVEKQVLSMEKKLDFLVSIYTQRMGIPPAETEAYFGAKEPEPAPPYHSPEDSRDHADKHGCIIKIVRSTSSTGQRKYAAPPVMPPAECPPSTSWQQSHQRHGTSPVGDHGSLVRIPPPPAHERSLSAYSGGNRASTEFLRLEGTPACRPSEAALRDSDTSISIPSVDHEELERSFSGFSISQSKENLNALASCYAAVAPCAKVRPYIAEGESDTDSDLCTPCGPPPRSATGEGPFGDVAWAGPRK
KCNQ2 pot baseline: second read-out of KCNQ2 pot, no call of its own (marks repeat the call); B-score; compound at 10 µM; measured here: initial fluorescence intensity artifact check;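 brightness before thallium and not channel activity; 0 = typical well and far values either way flag optical interference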
Active calls of the source: *. These rows are one share of the data (hit frequency here may not be typical).

SMILES,KCNQ2 pot,KCNQ2 pot baseline
Oc1ccc(/C=N/Nc2ncnc3c2ncn3Cc2ccccc2)cc1O,2.1,-1.4
CCOC(=O)Nc1sc2c(c1C(N)=O)CCC(C)C2 (stereo not given),0.71,-1.8
N#CCCN1CCN(C(=O)c2c(N)no[n+]2[O-])CC1,1.7,1.1
O=C(Nc1cc2c(cc1Cl)OCCCO2)c1ccco1,1.5,1.2
O=C(NCc1ccc(N2CCCC2=O)cc1)Nc1cccc(Cl)c1,0.53,1.6
O=C(O)c1cccc(C(=O)O)c1,0.07,-1.6
COc1ccc(Cl)cc1NC(=O)C12CCC(C)(C(=O)O1)C2(C)C (stereo not given),1.3,-0.68
O=C(O)c1ccccc1-n1cnnn1,0.02,-0.61
Cc1ccc(OCc2nc(-c3cccnc3)no2)cc1C,0.72,1.3
COc1ccc(OC)c(/C=N/NC(=O)c2cccc3ccccc23)c1,0.52,0.01
O=C(NCc1ccccn1)c1ccc(Cl)c(S(=O)(=O)Nc2ccccc2C(=O)NCc2ccccn2)c1,1,1
O=S(=O)(/N=C(/Nc1ccc(Cl)cc1Cl)c1ccccc1)c1cccs1,1.5,-0.34
Cc1c(Br)c([N+](=O)[O-])nn1CCCC(=O)Nc1c(C)n(C)n(-c2ccccc2)c1=O,0.92,-0.15
S=C(NCc1ccccc1)Nc1nccs1,9*,-1.5*
CCc1ccc(CNC(=O)CCCn2nc(C)n3ccnc3c2=O)cc1,0.21,0.71
COc1ccc(CNC(=O)COC(=O)C2CC3C=CC2C3)cc1 (stereo not given),0.9,1.8
O=C(NCCC1=CCCCC1)C1CCN(S(=O)(=O)c2cccc3nonc23)CC1,0.87,-0.08
CCCCC(=O)Nc1nc2ccc3nc(C)sc3c2s1,1.6,-1
CC(=O)c1cccc(NC(=O)c2c(F)c(F)c(F)c(F)c2F)c1,0.02,-0.64
O=C(O)c1ccc(Nc2cc(Cl)c3nonc3c2[N+](=O)[O-])cc1,1.1,-0.66
Cc1c(OCC(=O)NCCCN2CCOCC2)ccc2c3c(c(=O)oc12)CCCC3,0.2,-1.4
COc1cccc(N2CC(NS(=O)(=O)c3cccnc3)CC2=O)c1 (stereo not given),0.9,-0.64
CCC1CCCCN1C(=O)c1ccc(OC)c(OC2CCN(C(C)C)CC2)c1 (stereo not given),0.63,0.19
O=C(O)CCCC(=O)N1CC(=O)Nc2ccccc21,1.7,0.8
COc1ccc(-n2c(CNc3ccc(C)cc3)nnc2SCC(=O)Nc2nc(-c3ccccc3)cs2)cc1,1.1,-1.2

Next part (5 carried over from the part before).
SMILES,KCNQ2 pot,KCNQ2 pot baseline
Cc1c(OCC(=O)NCCCN2CCOCC2)ccc2c3c(c(=O)oc12)CCCC3,0.2,-1.4
COc1cccc(N2CC(NS(=O)(=O)c3cccnc3)CC2=O)c1 (stereo not given),0.9,-0.64
CCC1CCCCN1C(=O)c1ccc(OC)c(OC2CCN(C(C)C)CC2)c1 (stereo not given),0.63,0.19
O=C(O)CCCC(=O)N1CC(=O)Nc2ccccc21,1.7,0.8
COc1ccc(-n2c(CNc3ccc(C)cc3)nnc2SCC(=O)Nc2nc(-c3ccccc3)cs2)cc1,1.1,-1.2
CCS(=O)(=O)N1CCN(c2ccccc2F)CC1,0.99,-0.23
COC(=O)CC(N)c1ccc(Br)cc1 (stereo not given),0.05,-1.4
O=C(N1CCOCC1)N1CCCN(C(=O)N2CCOCC2)CC1,2,-0.08
O=C(CNC(=O)/C(=C/c1ccccc1)NC(=O)c1ccc(Br)cc1)OCc1ccccc1,0.01,-1.9
CC(C)OCCCNC(=O)c1ccc(CS(=O)(=O)c2cccc(C(F)(F)F)c2)o1,0.21,1.1
CCOC(=O)c1c(S(=O)(=O)N2c3ccccc3CC2C)c(C)n(C)c1C (stereo not given),0.73,1.9
NS(=O)(=O)c1ccc(CCNC(=O)c2cnc(Cl)c(Cl)c2)cc1,0.76,-1.9
O=C(CSc1nnnn1-c1cccc2c1CCCC2)N1CCCCC1,6.2*,-1.7*
CC(C)Cc1nnc(NC(=O)CCC(=O)NC2CC2)s1,0.58,-0.36
COc1ccc(NC(=S)N(CCc2c(C)[nH]c3ccc(C)cc23)Cc2cccnc2)cc1,0.43,-0.01
Cc1cccc(NC(=O)Nc2cccc(Oc3c(F)c(F)c(F)c(F)c3F)c2)c1,0.91,3.8
CCN(C(=O)CSc1ncccn1)C1CCS(=O)(=O)C1 (stereo not given),0.88,0.71
Cc1cccc(OCc2nnc(SCC(=O)O)n2-c2ccccc2)c1,0.19,-0.43
Cc1cc(=O)n2cc(-c3ccccc3)nc2[nH]1,0.57,-0.21
CCOc1ccc(OCC)c(NC(=O)CSCCc2ccccn2)c1,0.79,-0.04
Cc1ccc(C(=O)NC(=S)Nc2ccc(S(=O)(=O)N3CCN(C)CC3)cc2)cc1,0.55,1.4
CN(C(=O)CSc1nnc(-c2ccccc2)c(-c2ccccc2)n1)C1CCS(=O)(=O)C1 (stereo not given),0.63,0.56
CN(C)CCCNC1=CC(=O)CC(c2ccccc2)C1 (stereo not given),0.81,1.9
C=CCn1c(=O)c2c(nc(Br)n2Cc2ccccc2Cl)n(C)c1=O,1.3,-0.37
CCN(CC)S(=O)(=O)c1cccc(NC2=NCC(C)S2)c1 (stereo not given),0.24,0.04
O=C(Nc1ccccc1Oc1ccccc1)C1=COCCO1,0.25,0.48
O=C(Nc1cccnc1)Nc1cccc(F)c1,6.7*,-0.38*
CCN(Cc1ccccc1)S(=O)(=O)c1ccc(C(=O)N(CCCN(C)C)c2nc3c(C)c(C)ccc3s2)cc1,0.36,-2.2
COc1ccc(NC(=O)Nc2ccc(F)cc2)cn1,0.79,0.51
Cc1cccc(CC(C)NC(=O)c2cc(COc3ccc(F)cc3F)on2)n1 (stereo not given),0.47,0
CCN(CC(=O)Nc1ccc(OC)cc1)C(=O)c1ccc2c(c1)NC(=O)C(C)S2 (stereo not given),0.46,-1.1
CC1CC(C)CN(CCCNC(=O)c2ccc(CS(=O)(=O)Cc3ccccc3F)o2)C1 (stereo not given),0.47,0.84
COC(=O)CCC(=O)OC1(C)C(=O)C=C2C=C(C3CC3)N(CCc3ccccn3)C=C2C1=O (stereo not given),1.1,-0.39
O=C1CCCC2=C1C(c1cccs1)Nc1ccccc1N2 (stereo not given),0.68,-0.12
CCOC(=O)C1=C(c2ccccc2)N=C2SCC(=O)N2C1c1ccc(O)c(OC)c1 (stereo not given),1.6,0.07
COc1ccc(/C=C/C(=O)NC(=S)N2CCOCC2)cc1,0.88,0.26
CS(=O)(=O)c1cccc(C(=O)N(CCc2ccccc2)Cc2cccs2)c1,0.03,1.9
CSCCC(NS(=O)(=O)c1ccc2[nH]c(=O)c(=O)[nH]c2c1)C(=O)O (stereo not given),0.06,0.25
CC(=O)Oc1cccc(C2C3=C(CC(C)(C)CC3=O)Nc3ccccc3N2C(C)=O)c1 (stereo not given),0.93,-1.5
Cc1ccc(CS(=O)(=O)Cc2ccc(C(=O)NCCCN3CC(C)CC(C)C3)o2)cc1 (stereo not given),1.1,-0.65
COc1ccc(CCN(Cc2nc3ccccc3c(=O)[nH]2)C(=O)c2ccco2)cc1,0.37,3.6
O=c1cnn(Cc2c(Cl)cccc2Cl)c2ccccc12,0.97,-0.55
CN(CC(=O)N1CC=C(c2ccccc2)CC1)S(=O)(=O)c1ccc2c(c1)c(=O)n(C)c(=O)n2C,0.01,1.3
CCOC(=O)C(NCc1ccco1)(NC(=O)c1ccccc1)C(F)(F)F (stereo not given),1.2,0.68
COc1cccc(C(=O)NNC(=O)C(=O)Nc2cccc(Cl)c2C)c1,5.3,-1.6
CCOc1ccc(-c2cc(CCCC(=O)NCCCOC)no2)cc1,0.2,0.33
Cc1ccccc1NCN1C(=O)C2C3C=CC(C3)C2C1=O (stereo not given),1,-1.4
COc1ccc(CN(C)C(=O)c2cnc(C)cn2)c(OC)c1OC,1.2,1.8
COC(=O)c1ccccc1NC(=O)NN1CCN(C)CC1,0.72,0.09
CCOC(=O)CCCCC(=O)c1[nH]c(=O)[nH]c1CSc1nnc2c3cc(Br)ccc3n(C)c2n1,0.21,-0.27
COC(=O)c1cc(NC(=O)CCc2c(C)nc3ncnn3c2C)cc(C(=O)OC)c1,0.09,-0.59
Cc1ccc(CNC(=O)C2CCCN(c3nc4ccsc4c(=O)s3)C2)cc1 (stereo not given),0.02,0.38
CC(C)CCNC(=O)C1CC(=O)N(CCc2ccccc2)C1 (stereo not given),0.45,0
Cc1nc(N)sc1C(=O)N/N=C/c1c[nH]c2ccccc12,4.8,-0.2
C/C=C(/C)C(=O)Nc1cccc(C2=NOC3(C2)C[C@H](C(N)=O)N(C(=O)COc2ccc(Cl)cc2)C3)c1 (stereo not given in full),1.4,0

(more compounds)
Below each SMILES – KCNQ2 pot | KCNQ2 pot baseline
O=C(COC(=O)c1cc(-c2ccccc2)nc2ccccc12)NCC1CCCO1 (stereo not given)
→ 0.13 | -3.4
COCCNC(=S)NC(=O)c1ccc(C(C)(C)C)cc1
→ 2.2 | -2.3
O=C(NCc1ccc2c(c1)OCO2)c1cc(-c2ccncc2)nc2ccccc12
→ 0.8 | -1.1
COc1ccc(S(=O)(=O)N2CCOCC2)cc1NC(=O)c1ccccc1C
→ 0.81 | -0.69
O=C(Nc1nc2ccccc2s1)c1ccc([N+](=O)[O-])o1
→ 0.83 | -1.4
CC(=O)c1c(C)n(-c2ccccc2)c2ccc(OCC(O)CN3CCOCC3)cc12 (stereo not given)
→ 0.2 | -1.1
Cc1cccc(OCC(=O)Nc2ccc3c(c2)nc(CN2CCCCC2)n3C)c1
→ 0.93 | -0.88
Cc1cc2cc(CN3C(=O)c4ccccc4C3=O)ccc2[nH]1
→ 0.12 | 0.68
CC(NC(=O)CCc1nnc(-c2ccc(-c3ccccc3)cc2)o1)c1nccs1 (stereo not given)
→ 1.1 | 1.7
CN1CCN(C2=NCCO2)CC1
→ 0.62 | -2.2
O=S(=O)(NCCCN1CCOCC1)c1ccc2ccccc2c1
→ 1.3 | -0.62
Cc1ccc(C2C(C#N)=C(N)Oc3cc(C)oc(=O)c32)o1 (stereo not given)
→ 3.2 | -0.42
COc1ccccc1CCN1CCCC(CN(C)C(=O)CCC(N)=O)C1 (stereo not given)
→ 0.7 | -1.4
CCN(CC)C(=O)Cn1cnc2sc(C)c(S(=O)(=O)N3CCC(C)CC3)c2c1=O
→ 0.91 | -1.6
CC(C)N(CCNCc1nnc(-c2ccccc2)o1)C(C)C
→ 0.87 | 2
CCOc1ccc(NC(=O)CN(C)C(=O)CC2CC3CCC2C3)cc1OCC (stereo not given)
→ 0.15 | -0.31
O=C(N/N=C/c1cccs1)[C@H]1C[C@@H]1c1ccccc1
→ 5.2 | -2.5
CCCCN1C(=O)c2ccc(C(=O)Nc3ccc(C)c(S(=O)(=O)N(C)C)c3)cc2C1=O
→ 0.14 | 0.64
Cc1nn(C(CC(=O)O)C(=O)O)c(C)c1Br (stereo not given)
→ 0.44 | -0.05
CC1Cc2ccccc2N1S(=O)(=O)c1cnc[nH]1 (stereo not given)
→ 1.8 | -0.07
O=C(Nc1cccc(-c2ccc(N3CCOCC3)nn2)c1)c1ccc(F)cc1F
→ 2.7 | -1.3
Cc1cc(C(F)(F)F)nc(Nc2nc(C)c3ccccc3n2)n1
→ 1.7 | -1.4
N#CCSc1nc2ccccc2c2nc3ccccc3n12
→ 1.3 | -0.12
Cc1ccc(NC(=O)Nc2nnc(-c3ccncc3)s2)cc1
→ 1.5 | -0.1
Cc1cccc(C)c1NC(=O)N1CC(C)OC(C)C1 (stereo not given)
→ 0.59 | 0.85
O=C(c1cc(-c2ccc(Cl)cc2Cl)on1)N1CCOCC1
→ 0.39 | -0.75
COCCn1c(=S)[nH]c2ccccc21
→ 0.08 | -1
COc1ccc(OC)c(C2=NS(=O)(=O)N(C)C(C(=O)NCc3ccco3)=C2)c1
→ 0.32 | 1.4
Cn1c(=O)n(Cc2ccccc2)c(=O)c2c1nc1n2CCN1Cc1ccco1
→ 1.4 | 1.4
COc1ccc(/C=N/NC2=NCCCCC2)cc1
→ 2 | -0.54
CCc1nnc(SCC(=O)Nc2nnc(C)s2)n1CC1CCCO1 (stereo not given)
→ 0.59 | -0.68
CSc1ccccc1NC(=O)CCc1ccccc1
→ 1.1 | -0.05
Cc1ccccc1NC(=O)CN1C(=O)NC(C)(CCc2ccccc2)C1=O (stereo not given)
→ 1.6 | 0.75
Cc1ccc(C2(C)NC(=O)N(CC(=O)N3CCN(S(=O)(=O)c4ccc(Cl)s4)CC3)C2=O)cc1 (stereo not given)
→ 0.02 | 0.24
CC(=O)c1cccc(NC(=O)Nc2ccc(C(=O)N3CCOCC3)cc2)c1
→ 1.2 | 0.01
NC(=O)C1(N2CCCCC2)CCN(C(=O)c2ccccc2)CC1
→ 0.7 | -0.75
O=C(Nc1ccc(N2CCN(C(=O)c3ccccc3)CC2)cc1)c1ccc(Br)o1
→ 0.56 | -0.84
COc1ccccc1/C=N/NC(=O)C(=O)NCc1cccnc1
→ 1.6 | -1
COc1ccccc1-c1nnc(C2CCN(S(=O)(=O)c3cccc([N+](=O)[O-])c3)CC2)o1
→ 1.7 | -0.49
Cc1nnc(SCC(=O)Nc2ccc([N+](=O)[O-])cc2)n1C
→ 0.67 | 0.54

An excerpt from above in order of the KCNQ2 pot value, descending:
Compound,KCNQ2 pot,KCNQ2 pot baseline
COc1ccc(/C=N/NC2=NCCCCC2)cc1,2,-0.54
Cc1ccccc1NC(=O)CN1C(=O)NC(C)(CCc2ccccc2)C1=O (stereo not given),1.6,0.75
CSc1ccccc1NC(=O)CCc1ccccc1,1.1,-0.05
